# Rango release inh – inhibitors of RanGTP-induced Rango-importin beta complex dissociation; O95149+P62826; Biochemical FRET Rango-importin beta, RanGTP-induced dissociation; Potency, µM (highest dose often 46.1 µM), for inactives: at the highest dose activity change, negative = inhibition; hit rate 0.071% among 340,000; active means falling FRET ratio curve, often poorly fitted, with flat reads before Ran was added; inconclusive means other falling curves, or compound fluorescence or quenching; inactive means flat or rising ratio curve;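 further: potency means the concentration at half of the fitted maximal effect; % of control where 0% means no effect; nearly all actives have a fitted effect of over 45% in size; -100% = wells without RanGTP and RCC1; the record marks most hits as doubtful in a second field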
#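 Compounds sat 5 min at room temperature with 0.1 uM Rango biosensor plus 0.25 uM importin beta, then FRET pre-read. RanGTP-RCC1 (0.6 uM Ran, 2mM GTP, 0.2 uM RCC1) added for 45 min, and the CFP/YFP post-read measured blocked complex dissociation.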
# miR-21 reporter – raises the signal of a miR-21 reporter; Potency, µM (titrated, usually from 38.3 µM), inactives show at the highest dose reporter change, positive = more light; HeLa miR-21 FLuc reporter, luciferase, 48 h; AID 2288; 340,000 tested, under 10 active; active = well fitted rising curve with a large enough effect; inconclusive = small, poorly fitted or top-dose-only effect; inactive = no such curve, though single readings can be large or run the other way;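 further: % of control where 0% means no effect; miR-21 action dims this reporter so a rising signal means less miR-21 action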
#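 HeLa cells stably expressing CMV-driven firefly luciferase with a downstream miR-21 binding sequence, endogenously expressing miR-21, were treated with titrations (up to about 40uM final) for 48 hours at 37 degree Celsius. Luciferase luminescence was read after lysis.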
# Rango-impB inh – inhibitors of Rango-importin beta complex formation; hit rate 0.031% among 340,000; Q14974; Rango CFP/YFP FRET sensor + importin beta, 45 min; AID 540263; Potency, µM (top dose mostly 92.2 µM), inactives show at the top dose inhibition of complex formation; active = rising FRET ratio curve, often small or poorly fitted; inconclusive = mostly compound fluorescence or quenching in the first reads; inactive = flat curves in all reads;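 further: potency means the concentration at half of the fitted maximal effect; 0% = DMSO wells and 100% = buffer wells lacking importin beta; nearly all actives have a fitted effect of over 15% in size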
# Target sequence (Q14974 whole entry, looked up): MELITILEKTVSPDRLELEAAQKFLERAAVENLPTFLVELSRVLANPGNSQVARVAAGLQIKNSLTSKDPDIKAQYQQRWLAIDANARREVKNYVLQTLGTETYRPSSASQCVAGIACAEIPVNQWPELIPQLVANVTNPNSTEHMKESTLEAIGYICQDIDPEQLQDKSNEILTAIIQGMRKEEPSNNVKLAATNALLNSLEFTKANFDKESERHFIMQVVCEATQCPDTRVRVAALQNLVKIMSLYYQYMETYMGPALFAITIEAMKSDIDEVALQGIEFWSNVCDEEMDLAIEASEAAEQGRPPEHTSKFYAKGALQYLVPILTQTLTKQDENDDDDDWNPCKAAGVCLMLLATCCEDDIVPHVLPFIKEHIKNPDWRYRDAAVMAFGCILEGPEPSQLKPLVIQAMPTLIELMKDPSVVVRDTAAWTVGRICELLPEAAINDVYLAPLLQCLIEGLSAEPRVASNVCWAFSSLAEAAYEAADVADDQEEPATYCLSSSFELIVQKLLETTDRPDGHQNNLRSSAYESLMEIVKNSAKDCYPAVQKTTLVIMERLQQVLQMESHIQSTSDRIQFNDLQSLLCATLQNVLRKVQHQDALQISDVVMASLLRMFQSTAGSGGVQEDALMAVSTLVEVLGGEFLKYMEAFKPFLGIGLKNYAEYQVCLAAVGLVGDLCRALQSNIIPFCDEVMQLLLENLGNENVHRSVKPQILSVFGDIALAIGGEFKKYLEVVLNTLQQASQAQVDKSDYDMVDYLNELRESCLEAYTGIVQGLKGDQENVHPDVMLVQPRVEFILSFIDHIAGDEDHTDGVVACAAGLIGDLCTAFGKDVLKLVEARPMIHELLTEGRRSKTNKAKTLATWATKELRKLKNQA
#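 FRET biosensor Rango (snurportin 1 IBB between N-terminal EYFP and C-terminal Cerulean), 50 nM in PBS/1 mM DTT/0.02% Tween-20/0.1% BSA, preincubated 5 min RT with compound; 0.125 microM importin beta added, 45 min RT, CFP/YFP FRET ratio read.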
# GLA inh pH 4.5 – alpha-galactosidase A (human) inhibition, pH 4.5; P06280; activity change, negative = inhibition, % at 105 µM; purified enzyme, 4-MU-alpha-Gal fluorescence, pH 4.5; 230,000 tested, under 10 active; inconclusive = small, poorly fitted or top-dose-only inhibition, or a rising curve; inactive = flat fitted curve, though single readings scatter; no compound was filed as active;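 further: 0% = full activity with enzyme and -100% = basal without enzyme; dose as in the result columns while the protocol names 77 µM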
# * = called active by the depositor; ? = inconclusive; nt = no result given.
# Start of the data: the first six compounds, to show the layout:
# Assay codes: A = Rango release inh; B = miR-21 reporter; C = Rango-impB inh; D = GLA inh pH 4.5
> COc1ccc(CCNC(=O)CCn2c(=O)[nH]c3cc(OC)c(OC)cc3c2=O)cc1OC
  A: 8% | B: 1% | C: 4.9% | D: 2
> Cc1cccc(C(=O)Oc2cccc3c(O)cccc23)c1
  A: 9% | B: -1% | C: -0.5% | D: nt
> O=C(O)c1cccnc1Sc1ncnc2sc3c(c12)CCC3
  A: 2% | B: 1% | C: 0.0% | D: 6
> COc1ccc(CCNC(=O)C(CCC(N)=O)NS(=O)(=O)c2ccc(Cl)cc2)cc1OC (stereo not given)
  A: -2% | B: 0% | C: -3.4% | D: nt
> CC(=O)Oc1ccccc1C1=NN(C(=O)/C=C/c2ccccc2)C(c2ccccc2)C1 (stereo not given)
  A: -9% | B: -2% | C: 0.6% | D: 1
> CC(C)CCOc1cccc(C2c3c(oc4ccccc4c3=O)C(=O)N2CCCN2CCOCC2)c1 (stereo not given)
  A: 14% | B: nt | C: 1.5% | D: nt

# The list itself, repeating the preview:
# Assay codes: A = Rango release inh; B = miR-21 reporter; C = Rango-impB inh; D = GLA inh pH 4.5
> COc1ccc(CCNC(=O)CCn2c(=O)[nH]c3cc(OC)c(OC)cc3c2=O)cc1OC
  A: 8% | B: 1% | C: 4.9% | D: 2
> Cc1cccc(C(=O)Oc2cccc3c(O)cccc23)c1
  A: 9% | B: -1% | C: -0.5% | D: nt
> O=C(O)c1cccnc1Sc1ncnc2sc3c(c12)CCC3
  A: 2% | B: 1% | C: 0.0% | D: 6
> COc1ccc(CCNC(=O)C(CCC(N)=O)NS(=O)(=O)c2ccc(Cl)cc2)cc1OC (stereo not given)
  A: -2% | B: 0% | C: -3.4% | D: nt
> CC(=O)Oc1ccccc1C1=NN(C(=O)/C=C/c2ccccc2)C(c2ccccc2)C1 (stereo not given)
  A: -9% | B: -2% | C: 0.6% | D: 1
> CC(C)CCOc1cccc(C2c3c(oc4ccccc4c3=O)C(=O)N2CCCN2CCOCC2)c1 (stereo not given)
  A: 14% | B: nt | C: 1.5% | D: nt
> CNCCCOc1ccc(C(C)(C)c2ccccc2)cc1
  A: nt | B: -10% | C: nt | D: -2
> COc1cccc2cc(-c3nnc(SCC(=O)NCCc4ccccc4)n3C)oc12
  A: 29% | B: 2% | C: 0.0% | D: -4
> CC(C)C(=O)N1CCN(CCN2C(=O)c3cccc4cccc(c34)C2=O)CC1
  A: 0% | B: -12% | C: -0.4% | D: nt
> Cn1c(CNC(=O)c2ccccc2F)nnc1SCc1ccc(Cl)cc1
  A: -2% | B: 3% | C: -1.4% | D: 1
> O=C(NCCOC(=O)c1ccccc1C(=O)OCCNC(=O)c1cccnc1)c1cccnc1
  A: 14% | B: 0% | C: -0.5% | D: -5
> CCOC(=O)c1c(NC(=O)CN2CCOCC2)sc2c1CC(C)(C)OC2
  A: -23% | B: -1% | C: 4.0% | D: -1
> NC(=O)[C@@H]1CCOc2c(F)cc([N+](=O)[O-])cc2C(=O)N[C@@H](CO)C(=O)NCC(=O)N1
  A: 7% | B: -4% | C: -1.1% | D: -7
> CCOC(=O)c1nnn(-c2nonc2N)c1-c1ccc(Br)cc1
  A: -3% | B: -3% | C: 1.6% | D: 3
> CCCCc1nc2ccccc2n1CC(=O)NN
  A: -10% | B: -1% | C: -3.4% | D: 8
> CCn1cc(CN2N=C(C)CC2c2ccccc2)c(C)n1 (stereo not given)
  A: 6% | B: -3% | C: -0.9% | D: -19
> Cc1cc(NC(=O)CSC2=NS(=O)(=O)c3ccccc3N2)no1
  A: -1% | B: nt | C: 4.5% | D: nt
> Cc1c(-n2c(SCC(N)=O)nc3ccccc3c2=O)c(=O)n(-c2ccccc2)n1C
  A: -2% | B: 1% | C: -0.7% | D: 2
> Nc1nnc(SCC(=O)NC2CCCCCC2)s1
  A: 21% | B: nt | C: 0.0% | D: nt
> Cc1ccc(NC(=O)CCSc2nc(C)cc(C)n2)cc1
  A: -4% | B: -8% | C: -0.2% | D: -6
> CCCCCC(=O)Nc1ccc(-c2csc(N)n2)cc1
  A: 0% | B: -34% | C: -1.3% | D: 5
> CCOc1ccc(NC(=O)CN(C)C(=O)c2ccc(OCC3CCCO3)cc2)cc1OCC (stereo not given)
  A: 2% | B: -3% | C: 2.5% | D: nt
> CC1=NN(CCC#N)C(=O)/C1=C/c1ccc(N(C)C)cc1
  A: 5% | B: -1% | C: 1.5% | D: 1
> COC(=O)COc1ccc(/C=N/NS(=O)(=O)c2ccccc2)cc1
  A: -5% | B: -3% | C: 1.2% | D: nt
> Cc1nnc2sc(-c3ccccn3)nn12
  A: 1% | B: -5% | C: -0.1% | D: -4

# New compounds follow.
# Assay codes: A = Rango release inh; B = miR-21 reporter; C = Rango-impB inh; D = GLA inh pH 4.5
> CCOc1cccc(C(=O)NC(=S)Nc2ccc(N3CCCC3)cc2)c1
  A: 2% | B: -6% | C: -3.4% | D: -12
> CNc1ccc(/C=C2\COc3ccccc3C2=O)cc1[N+](=O)[O-]
  A: 2% | B: -4% | C: -1.8% | D: -4
> O=C(NCc1ccco1)/C(=C/c1ccccc1)NC(=O)c1ccco1
  A: -7% | B: -1% | C: 0.0% | D: nt
> CCOc1ccc(NC(=O)C2CCCN(c3nn4c(=O)cc(C)nc4s3)C2)cc1 (stereo not given)
  A: 9% | B: -1% | C: 2.6% | D: nt
> COc1ccc(/C=C(/C#N)C(=O)Nc2cccc([N+](=O)[O-])c2)cc1C(=O)O
  A: -3% | B: 0% | C: -0.9% | D: 3
> CCOc1ccc(CN2CCC(C(=O)N3CCN(c4ccccc4F)CC3)CC2)cc1OC
  A: 0% | B: 1% | C: 8.2% | D: -15
> COc1ccc(-c2c3c(=O)n(C)c(=O)n(C)c3cn2-c2ccccc2O)cc1
  A: 15% | B: -22% | C: -0.9% | D: 1
> O=C(OCc1ccc([N+](=O)[O-])cc1)c1cc([N+](=O)[O-])ccc1N1CCOCC1
  A: -5% | B: nt | C: 2.3% | D: nt
> COc1ccccc1CC(=O)N1CCN(S(=O)(=O)c2ccccc2F)CC1
  A: 16% | B: nt | C: 1.4% | D: nt
> O=C1c2ccc([N+](=O)[O-])cc2NC(c2ccco2)N1/N=C/c1ccco1 (stereo not given)
  A: -4% | B: 0% | C: 3.2% | D: -6
> O=C(COc1ccccc1)NC1CCCCCCC1
  A: -5% | B: -42% | C: -4.9% | D: nt
> COc1ccc(-n2nc(C(=O)NCC(=O)NCCCN3CCOCC3)c3ccccc3c2=O)cc1
  A: 9% | B: 3% | C: -0.8% | D: nt
> CC1CCC(C(C)C)C(OC(=O)C[n+]2cccc(C(N)=O)c2)C1 (stereo not given)
  A: 3% | B: -2% | C: 0.2% | D: 9
> O=C(CCn1c(=O)oc2ccccc21)Nc1ccc(N2CCOCC2)cc1
  A: 5% | B: -2% | C: -0.4% | D: nt
> CC(=O)N1[C@H](C)C=C[C@]1(Cc1ccccc1)C(=O)NCCc1c[nH]c2ccccc12
  A: 29% | B: 6% | C: -0.4% | D: 2
> O=C(Nc1cccc(Cl)c1)N1CCN2C(=O)c3ccccc3C12c1ccccc1 (stereo not given)
  A: -5% | B: ? | C: -0.8% | D: nt
> CN1CCN(C(=O)c2cc3ccccc3[nH]2)CC1
  A: 8% | B: -8% | C: 1.2% | D: nt
> COCCNC(=O)CSc1nc(N)c(NC(=O)c2ccccc2F)c(=O)[nH]1
  A: 2% | B: -2% | C: 3.6% | D: 3
> O=c1cc(CN2CCN(Cc3ccc(F)cc3)C(CCO)C2)[nH]c2ccccc12 (stereo not given)
  A: 8% | B: -3% | C: 4.4% | D: nt
> Cn1cccc1C1CCCN1CC(=O)Nc1ccc(C(N)=O)cc1 (stereo not given)
  A: 10% | B: nt | C: -5.0% | D: nt
> NC(=O)c1ccccc1NC(=O)COc1ccc(Cl)cc1
  A: -6% | B: -71% | C: 1.2% | D: -4
> Cc1ccc(N2C(=O)N(CC(=O)Nc3ccc(C)cc3[N+](=O)[O-])C(=O)C2C)cc1 (stereo not given)
  A: -4% | B: nt | C: -6.6% | D: nt
> CCOc1ccccc1N1CN(C2CCCCC2)CNC1=S
  A: 2% | B: -1% | C: ? | D: 2
> C/C(=N\NC(=O)c1ccc(C(=O)N/N=C(\C)c2ccco2)o1)c1ccco1
  A: 0% | B: -7% | C: 0.1% | D: nt
> Cc1cc(=O)[nH]c(N/N=C2/CCCC/C2=C\c2ccccc2)n1
  A: -7% | B: -12% | C: -2.7% | D: 1

# By substructure, those above with a thiophene ring, fused or not (2)
# Assay codes: A = Rango release inh; B = miR-21 reporter; C = Rango-impB inh; D = GLA inh pH 4.5
> O=C(O)c1cccnc1Sc1ncnc2sc3c(c12)CCC3
  A: 2% | B: 1% | C: 0.0% | D: 6
> CCOC(=O)c1c(NC(=O)CN2CCOCC2)sc2c1CC(C)(C)OC2
  A: -23% | B: -1% | C: 4.0% | D: -1

# (cont.)
# Assay codes: A = Rango release inh; B = miR-21 reporter; C = Rango-impB inh; D = GLA inh pH 4.5
> CCCCc1ccc(NC(=O)N[C@@H](C)C(=O)O)cc1
  A: -2% | B: 0% | C: 0.1% | D: 6
> CC[C@H](C)Cc1cn([C@@H](CCCCNC(=O)OC(C)(C)C)C(=O)NCCCCCCCCCCC(=O)N2CCN(C(=O)OC(C)(C)C)CC2)nn1
  A: -20% | B: nt | C: 1.0% | D: nt
> O=C(O)CCn1ccnc1-c1ccccc1
  A: 29% | B: -1% | C: 0.8% | D: -5
> CCC(C)N(CCNC(=O)c1ccc(NC2=NC3CS(=O)(=O)CC3S2)cc1)Cc1ccco1 (stereo not given)
  A: -7% | B: -3% | C: -2.0% | D: nt
> CC(NC(=O)COC(=O)CCNC(=O)c1ccco1)C12CC3CC(CC(C3)C1)C2 (stereo not given)
  A: -14% | B: -31% | C: 0.7% | D: 3
> COc1ccccc1CNC(=O)Cc1csc(NC(=O)Nc2ccccc2OC)n1
  A: 1% | B: nt | C: 0.0% | D: nt
> O=C(COC(=O)/C=C/C(=O)OCC(=O)NC12CC3CC(CC(C3)C1)C2)NC12CC3CC(CC(C3)C1)C2
  A: 20% | B: -1% | C: -0.5% | D: 6
> COc1ccc(OC)c(-n2c(C)cc(C=O)c2C)c1
  A: -22% | B: 0% | C: -5.0% | D: -1
> CC(C)(C)C1CCC(OCC(O)CN2CCN(c3ccccc3)CC2)CC1 (stereo not given)
  A: 1% | B: -5% | C: -0.8% | D: -7
> Nc1cc(N)nc(SCC(=O)NCc2ccc3c(c2)OCO3)n1
  A: 2% | B: nt | C: -7.0% | D: nt
> COc1ccc2cc(C(=O)N3CCN(c4ccc(F)cc4)CC3)[nH]c2c1
  A: 16% | B: 0% | C: -0.6% | D: nt
> COc1ccc(C2C3=C(CC(C)(C)CC3=O)N(C)C3=C2C(=O)CC(C)(C)C3)cc1OC
  A: ? | B: -4% | C: ? | D: nt
> CCC(C)c1ccccc1NC(=S)NC(=O)c1ccco1 (stereo not given)
  A: -10% | B: 0% | C: -3.0% | D: nt
> COc1ccccc1C(=O)NCCC(=O)Nc1cccc(C)n1
  A: 3% | B: -17% | C: 3.3% | D: nt
> Cn1c(Cn2nnc3ccccc32)nnc1SCC(=O)N1c2ccccc2CCc2ccccc21
  A: -26% | B: 6% | C: 0.2% | D: 1
> C=CCn1c(COc2ccccc2F)nnc1SCC(=O)c1c[nH]c2ccccc12
  A: -3% | B: 14% | C: -1.2% | D: -12
> CCOc1ccc(NC(=O)c2cn(CC(C)C)c(=O)c3c2c2ccccc2n3C)cc1
  A: 9% | B: 0% | C: -1.0% | D: -6
> Cc1cccc(NC(=O)C2CCCN2S(=O)(=O)c2cccc3cccnc23)c1 (stereo not given)
  A: nt | B: -30% | C: nt | D: -7
> COc1ccc(CN(C)C(=O)CC(c2ccccc2)c2ccccc2)cc1
  A: 0% | B: 5% | C: 4.7% | D: nt
> O=C(C1=C[C@H](c2ccccc2)C[C@H](OCc2ccc(CO)cc2)O1)N1CCCCCCC1
  A: nt | B: 0% | C: nt | D: -7
> Cc1cccc(-c2nc3cc([N+](=O)[O-])ccc3o2)c1
  A: 5% | B: -33% | C: 2.9% | D: 9

# Bioassay records as filed in PubChem BioAssay.

# This is a subset, so the mix of outcomes need not match the whole.
